Source: PubChem (several laboratories)
PrP UTR inh = suppresses PrP 5' UTR mRNA reporter expression | AID 488862 | inhibition, % (concentration not given with the values) | cell-based PrP 5' UTR mRNA reporter, plate reader | 0.35% of 340,000 active;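 active means every replicate at 50% or more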;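 further: 0 = median of the neutral control wells; tested in H4 reporter cells; numbers are from one replicate; inactives centre near -14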
Mtb hypoxia rep = reduces hypoxia-regulated biosensor signal in M. tuberculosis; M. tuberculosis hypoxia-regulated fluorescent reporter, fluorescence; fluorescence inhibition, % (test concentration not listed); 0.1% of 300,000 active; AID 1159583;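 active means 35 to 45% if threefold the growth effect, above 45% if 1.5-fold the growth effect; inactive means the rest, general growth blockers included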;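 further: wells of about 50 µL received 100 nL stock; 0% = vehicle wells and 100% = reference inhibitor wells; whole bacteria with a GFP reporter of the hypoxia response; strong numbers were not always called active; many hits fall short of the cut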
Autofluor counter = flagged as autofluorescent in microsphere protease counterscreen. compound autofluorescence counterscreen, microsphere flow cytometry; stronger effect = higher value. fluorescence intensity (concentration not given with the values). 3.1% of 360,000 active. AID 624483;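 active means at least 3 SD above the mean of all compounds, about 16000 in these data; inconclusive means too few beads counted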;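 further: 100 nL of 1 mM stock went into each well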
ugtP null kill = kills S. aureus RN4220 lacking UgtP; S. aureus RN4220 ugtP deletion, OD600 growth, 16 h; some inactives read as strong as hits; growth inhibition, % (test concentration not listed); 0.54% of 330,000 active;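 active means z-score under -3 and OD600 up to 0.15 on both plates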;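 further: plate controls were untreated wells for no effect and antibiotic for full effect; wells of about 80 µL received 100 nL stock; the first replicate is given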
RN4220 kill = S. aureus RN4220 growth inhibition; OD600, 16 h; inhibition, % (test concentration not listed); 0.33% of 330,000 active;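 active means z-score of -3 or lower and OD600 up to 0.18 on both plates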;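 further: plate controls were untreated cells for no effect and reference antibiotic for full effect; stock transfer was 100 nL into about 80 µL; one replicate is shown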
BJeLR viability = BJeLR cell viability loss. inhibition, % (test concentration not listed). BJeLR (HRASV12) viability, CellTiter-Glo ATP luminescence, 48 h; reference of the scale not given here. AID 1554. 0.17% of 300,000 active;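 active means replicate mean above 50%; inconclusive means above 50% but judged a plate artefact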;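 further: 50 nL library stock added to about 25 µL; numbers are from one replicate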
Mtb hypoxia rep growth = second read-out of Mtb hypoxia rep, no call of its own (marks repeat the call); growth inhibition, %; measured here: M. tuberculosis growth (absorbance);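 0% = vehicle and 100% = reference antibiotic; read after six days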
Starred values were filed as active, the others as inactive; ? = inconclusive; . = not tested or not shown.

nr	Molecule	PrP UTR inh	Mtb hypoxia rep	Mtb hypoxia rep growth	Autofluor counter	ugtP null kill	RN4220 kill	BJeLR viability
1	O=C(NC(=S)Nc1c(Cl)ccc2nsnc12)c1ccccc1F	-10	-2	-12	4184	4	0.2	6
2	Cc1cccc(NC(=O)CCC(=O)NN=Cc2cccnc2)c1	.	2	-4	.	4	2.4	.
3	Cc1ccc(-c2nnc(SCC(=O)Nc3nc4c(s3)CCCC4)n2C)cc1	-2	3	8	10135	6	4.8	7
4	Cc1cccc(C)c1NC(=O)CNc1ncnc2sc(C)c(C)c12	-10	1	-2	2214	-4	3.4	-4
5	CC1(C)CC(=O)C2=C(C1)OC(N)=C(C#N)C2c1ccccc1[N+](=O)[O-] (stereo not given)	-11	9	13	4223	-5	8.0	5
6	N#Cc1c2c(nc(N)c1-c1ccccc1)CCCCC2	-15	.	.	2670	8	1.1	-6
7	C=CCOC(=O)/C(=C/c1cccnc1)NC(=O)c1ccccc1	-6	14	1	.	1	3.1	0
8	O=C(NC1CCCc2c1cnn2-c1ccc(F)cc1F)c1cnccn1 (stereo not given)	-16	10	9	2796	3	0.7	5
9	Cc1ccc(-c2n[nH]c(=S)n2N=Cc2ccc(C(=O)O)cc2)cc1	.	6	7	.	6	2.0	.
10	Cc1ccc(Cc2cnc(N3C(=N)SC(C)C3=O)s2)cc1 (stereo not given)	-17	-3	-4	5009	51	58	10
11	O=C(C1CCN(S(=O)(=O)c2ccccc2F)CC1)N1CCCC1	-13	7	0	4820	12	4.6	.
12	Cc1cc(C)c([N+](=O)[O-])cc1NC(=O)CCSc1ccccc1Cl	-19	2	9	2953	11	2.7	6
13	COc1cc2c(cc1OC)C(c1ccc3c(c1)OCO3)C1=C(CC(C)(C)CC1=O)N2 (stereo not given)	-8	.	.	3106	-2	-2.8	-7
14	Cc1ccccc1NC(=S)NCc1ccc2c(c1)OCO2	-6	.	.	2679	1	-1.2	6
15	CC1(C)CC(=O)c2c(n(S(=O)(=O)c3ccccc3)c3ccc(NS(=O)(=O)c4ccccc4)cc23)C1	-36	4	0	7239	-31	3.5	7
16	CC(=O)NCCC(=O)Nc1cccc(S(=O)(=O)N(C)c2ccccc2)c1	-4	5	-4	2506	-1	6.8	-10
17	CCOc1ccc(/C(O)=C2/C(=O)C(=O)N(c3cc(C)on3)C2c2ccc(C(=O)OC)cc2)cc1 (stereo not given)	-36	0	-2	3263	8	2.2	0
18	CN(C(=O)CSc1nc2ccccc2o1)C1CCCCC1	-52	1	7	.	3	0.1	.
19	CCOC(=O)N1CCC(c2cc(=O)n3[nH]c(C)c(-c4ccc(F)cc4)c3n2)CC1	-22	10	5	5864	9	4.2	-2
20	Cn1c(SCC(=O)NCc2ccco2)nnc1-c1ccc(S(=O)(=O)N2CCOCC2)cc1	-35	3	3	6274	-10	7.9	-3
21	O=C(CSc1nnc(Cc2ccccc2)c(=O)[nH]1)Nc1ccccc1	-15	-9	5	6359	-2	1.4	0
22	CCOC(=O)C(=O)Nc1ccc([N+](=O)[O-])cc1OC	-9	5	3	2613	1	2.0	-3
23	NC(=O)c1cccnc1Oc1ccc(Cl)cc1	-39	2	-9	5824	10	2.3	1
24	CC(=O)NC(Cc1c[nH]c2ccccc12)C(=O)OCC(=O)N1CCN(S(=O)(=O)c2ccc(Cl)cc2)CC1 (stereo not given)	-9	0	3	5826	7	2.3	.
25	CCOc1cccc(CNCCc2c(C)[nH]c3ccc(OC(F)(F)F)cc23)c1O	-14	.	.	4230	.	.	12
26	N=C1SCC(=O)N1N=Cc1ccccc1	.	11	-1	.	3	-4.0	.
27	CN(CCC#N)CC(=O)Nc1ccc(NC(=O)CN(C)CCC#N)cc1	-12	3	4	12768	1	2.5	2
28	COC(=O)C1=CNC=C(C(=O)OC)C1c1ccccc1Cl	-24	.	.	4709	-9	2.7	.
29	O=C1C=C(c2cccc(Cl)c2)CC(c2ccc3c(c2)OCO3)C1 (stereo not given)	.	24	9	.	9	7.1	.
30	CC(=O)Nc1ccc(NC(=O)C2CCN(C(=O)C3CC(=O)N(c4ccc(C)cc4)C3)CC2)cc1 (stereo not given)	-8	2	-4	4061	9	3.2	-7
31	Cc1ccc(C)c(C(=O)CN2Cc3ccccc3C2=O)c1	-23	.	.	5398	9	8.8	9
32	CCCCn1c(N)c(N(CCC(C)C)C(=O)c2ccccc2-n2cnnn2)c(=O)[nH]c1=O	-4	0	3	5125	11	4.8	.
33	O=C(c1ccc(OC2CCN(Cc3ccccc3O)CC2)cc1)N1CCCCC1	-16	6	0	5856	10	2.7	-9
34	O=C(COc1ccccc1)Nc1nc(-c2ccc(S(=O)(=O)N3CCOCC3)cc2)cs1	-26	.	.	4490	-1	3.6	4
35	Cc1cccc(Nc2ncnc3c2cnn3Cc2ccccc2)c1	-3	-9	5	2220	35	2.3	7
36	c1ccc(Oc2ccc(-n3cnnn3)cc2)cc1	-16	0	0	14435	-2	1.0	5
37	CC1(c2ccc(Cl)cc2)NC(=O)N(CC(=O)c2ccc3c(c2)OCO3)C1=O (stereo not given)	-11	0	-6	5492	0	1.7	5
38	CCCCNC(=S)N(C)N=Cc1ccc(F)cc1	.	7	-1	.	3	12	.
39	COc1cc(NS(=O)(=O)c2ccc3c(c2)NC(=O)CO3)cc(OC)c1	1	5	-3	5893	2	0.2	5
40	N#Cc1c(-c2ccccc2)cc(-c2cccs2)nc1SCC(=O)O	-9	8	5	3173	-5	7.4	-5
41	Cc1ccccc1C=N/N=C1/NC(=O)CCS1	.	11	8	.	7	5.9	.
42	CN(C)C(=O)Oc1ccc(Br)cc1C(=O)Nc1ccc(F)c(Cl)c1	-12	10	16	4235	19	16	7
43	Cc1ccc(S(=O)(=O)N(Cc2nccn2C)C(C)C)cc1	-28	3	7	6242	7	4.1	0
44	N=c1n(CC(=O)c2cccs2)c2ccccc2n1Cc1ccccc1	-15	-7	-1	4692	-7	-0.7	-1
45	N#CCC(=O)Nc1nc(-c2ccc3c(c2)OCCO3)cs1	-45	-7	0	4250	-10	1.1	3
46	NC(=O)[C@@H]1CCCNc2c(F)cc([N+](=O)[O-])cc2C(=O)N[C@@H](CO)C(=O)NCC(=O)N1	-20	.	.	3722	.	.	4
47	Cc1ccc(CCNC(=O)C2CCC(=O)N2C2CCCC2)cc1 (stereo not given)	-19	4	3	5974	-5	3.5	0
48	COc1cc(CCC(=O)Nc2ccc(Br)c(C(F)(F)F)c2)cc(OC)c1OC	-1	10	-2	7506	-2	-6.7	-10

Four successive records out of the list so far:
nr	Molecule	PrP UTR inh	Mtb hypoxia rep	Mtb hypoxia rep growth	Autofluor counter	ugtP null kill	RN4220 kill	BJeLR viability
37	CC1(c2ccc(Cl)cc2)NC(=O)N(CC(=O)c2ccc3c(c2)OCO3)C1=O (stereo not given)	-11	0	-6	5492	0	1.7	5
38	CCCCNC(=S)N(C)N=Cc1ccc(F)cc1	.	7	-1	.	3	12	.
39	COc1cc(NS(=O)(=O)c2ccc3c(c2)NC(=O)CO3)cc(OC)c1	1	5	-3	5893	2	0.2	5
40	N#Cc1c(-c2ccccc2)cc(-c2cccs2)nc1SCC(=O)O	-9	8	5	3173	-5	7.4	-5

Continued:
nr	Molecule	PrP UTR inh	Mtb hypoxia rep	Mtb hypoxia rep growth	Autofluor counter	ugtP null kill	RN4220 kill	BJeLR viability
49	CCOc1cc(C=NNC(=O)c2ccc(NC(=O)C3CC3)cc2)ccc1O	.	9	11	.	5	0.2	.
50	CC(=O)C1C(c2ccc(Br)cc2)C2C(C)=NN=C2CC1(C)O (stereo not given)	-11	2	3	2263	3	-0.4	-4
51	COc1cc(C2NC(=O)CCC2[N+](=O)[O-])cc(OC)c1OC (stereo not given)	-10	-10	-1	3703	-10	-1.6	8
52	CC(=O)Nc1ccc(S(=O)(=O)N2CCN(C)CC2)cc1	-13	-2	-7	23174*	0	0.9	-5
53	COC(=O)c1ccc(N2CCC(c3cc(-c4ccc(OC)cc4)n[nH]3)CC2)c([N+](=O)[O-])c1	-23	4	11	23463*	19	-0.3	1
54	COc1ccc(C=NNC2=NCCCCC2)cc1	.	3	3	.	1	0.4	.
55	CC(=O)c1ccccc1NC(=O)COC(=O)C1=NN(c2ccccc2)C(=O)CC1	-8	10	-8	?	5	1.1	.
56	O=S(=O)(N1CCOCC1)N1CCCN(S(=O)(=O)N2CCOCC2)CC1	-6	.	.	4852	0	4.5	-6
57	O=C1N(c2cccc(Cl)c2)C(c2ccccc2)N2CCCN12 (stereo not given)	-5	6	6	2661	2	1.1	0
58	NC(=O)CN1C(=O)C(=O)N(Cc2ccccc2Cl)C1=O	-30	1	1	4385	3	0.2	-1
59	CSCCC(NC(=O)C1CCC(C)CC1)C(=O)NCCN1CCC(C)CC1 (stereo not given)	-18	8	1	5699	9	3.6	-20
60	Cc1cccc(NC(=O)c2ccc(S(=O)(=O)N3CCOCC3)cc2)c1C	-23	11	6	3661	17	1.9	-12

Copied from the list:
Under PrP UTR inh, entry 30 has -8
Under Mtb hypoxia rep, entry 38 has 7
Under Autofluor counter, entry 52 has 23174*
Under ugtP null kill, entry 26 has 3
Under RN4220 kill, entry 28 has 2.7

(cont.)
nr	Molecule	PrP UTR inh	Mtb hypoxia rep	Mtb hypoxia rep growth	Autofluor counter	ugtP null kill	RN4220 kill	BJeLR viability
61	Cc1cc(C(=O)N/N=C/c2ccc([N+](=O)[O-])cc2)c2ccccc2n1	-47	.	.	4403	.	.	-4
62	COc1ccc(OCc2nnc(SCC(=O)Nc3ccccc3F)o2)cc1	-10	-1	-5	5745	1	6.7	3
63	Cc1cc(C)c2c(N=CN(C)C)c(C(=O)N3CCN(c4ncccn4)CC3)sc2n1	-2	.	.	2635	4	2.7	1
64	Cc1ccc(Sc2cnc3ccccc3n2)cc1	88*	9	6	3023	3	1.2	-6
65	O=C(NNC(=S)NC(=O)c1ccccc1Cl)c1cccc([N+](=O)[O-])c1	2	15	6	2916	6	11	-1
66	Cc1n[nH]c(=O)nc1NN=Cc1cccs1	.	7	-1	.	3	2.0	.
67	COc1ccc(C(=O)Nc2ccc(N3CCN(C)CC3)cc2)cc1	-32	-6	-10	.	10	1.5	-2
68	CC(NC(=O)c1cccc(F)c1)C(c1cccs1)N1CCN(C)CC1 (stereo not given)	-15	6	12	23669*	1	3.0	1
69	COc1ccc(C(C(=O)NCc2ccccc2)N(Cc2ccco2)C(=O)c2snc(C(N)=O)c2N)cc1 (stereo not given)	-14	11	1	3055	12	1.9	3
70	O=C(CCN1C(=O)/C(=C/c2ccc(F)cc2)SC1=S)NCCc1ccc(O)cc1	-11	10	6	5291	11	3.4	9
71	O=S(=O)(c1ccc(Cl)c(Cl)c1)c1snnc1-c1ccccc1	39	21	21	3063	46	24	53*
72	CC(C)N(C(=O)COC(=O)c1ccc(Cl)c(S(N)(=O)=O)c1)C(C)C	-15	7	6	4176	15	1.7	3
73	CCN(CC(=O)NCc1cccs1)C(=O)c1cccc(S(=O)(=O)N2CC(C)OC(C)C2)c1 (stereo not given)	-13	3	11	5283	-4	-2.1	.
74	CC1=CC(C)C(C[N+]2(C)CCCCC2)C(C)C1 (stereo not given)	-10	7	9	2346	7	4.1	-6
